# Source: PubChem
# miR-21 FLuc: miR-21 reporter, rising signal | AID 2288 | Potency, µM (top dose mostly 38.3 µM), for the others: at the top dose reporter change, positive = more light | HeLa miR-21 FLuc reporter, luciferase, 48 h | 340,000 tested, under 10 active; active = well fitted rising curve with a large enough effect; inconclusive = small, poorly fitted or top-dose-only effect; inactive = no such curve, though single readings can be large or run the other way;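 note: % of control where 0% means no effect; miR-21 action dims this reporter so a rising signal means less miR-21 action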
#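 HeLa cells endogenously expressing miR-21, stably carrying CMV-driven firefly luciferase with a downstream miR-21 binding site, 2000 cells/well. Titrations up to approximately 40 uM, 48 hours; luciferase luminescence read.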
# Rango dissoc inh: inhibitors of RanGTP-induced Rango-importin beta complex dissociation. Potency, µM (series often up to 46.1 µM), for inactives: top-dose activity change, negative = inhibition. O95149+P62826. AID 540253. hit rate 0.071% among 340,000. Biochemical FRET Rango-importin beta, RanGTP-induced dissociation; active means falling FRET ratio curve, often poorly fitted, with flat reads before Ran was added; inconclusive means other falling curves, or compound fluorescence or quenching; inactive means flat or rising ratio curve;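 note: potency is the fitted concentration of half-maximal effect; % of control where 0% means no effect; nearly all actives have a fitted effect of over 45% in size; -100% = wells without RanGTP and RCC1; the record marks most hits as doubtful in a second field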
#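 Rango/importin beta premix (0.1/0.25 uM final), PBS + 1 mM DTT + 0.02% Tween-20 + 0.1% BSA; cpd 5 min RT; FRET pre-read; + RanGTP-RCC1 (0.6 uM Ran, 2 mM GTP, 0.2 uM RCC1); 45 min RT; FRET post-read, ex 430, em 486/530 nm.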
# Rango-impB inh: Rango-importin beta binding inhibition | hit rate 0.031% among 340,000 | Rango CFP/YFP FRET sensor + importin beta, 45 min | Q14974 | Potency, µM (highest dose often 92.2 µM), for the others: at the top dose inhibition of complex formation; active = rising FRET ratio curve, often small or poorly fitted; inconclusive = mostly compound fluorescence or quenching in the first reads; inactive = flat curves in all reads;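 note: potency is the fitted concentration of half-maximal effect; 0% = DMSO wells and 100% = buffer wells lacking importin beta; nearly all actives have a fitted effect of over 15% in size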
# Target sequence (Q14974 whole entry, looked up): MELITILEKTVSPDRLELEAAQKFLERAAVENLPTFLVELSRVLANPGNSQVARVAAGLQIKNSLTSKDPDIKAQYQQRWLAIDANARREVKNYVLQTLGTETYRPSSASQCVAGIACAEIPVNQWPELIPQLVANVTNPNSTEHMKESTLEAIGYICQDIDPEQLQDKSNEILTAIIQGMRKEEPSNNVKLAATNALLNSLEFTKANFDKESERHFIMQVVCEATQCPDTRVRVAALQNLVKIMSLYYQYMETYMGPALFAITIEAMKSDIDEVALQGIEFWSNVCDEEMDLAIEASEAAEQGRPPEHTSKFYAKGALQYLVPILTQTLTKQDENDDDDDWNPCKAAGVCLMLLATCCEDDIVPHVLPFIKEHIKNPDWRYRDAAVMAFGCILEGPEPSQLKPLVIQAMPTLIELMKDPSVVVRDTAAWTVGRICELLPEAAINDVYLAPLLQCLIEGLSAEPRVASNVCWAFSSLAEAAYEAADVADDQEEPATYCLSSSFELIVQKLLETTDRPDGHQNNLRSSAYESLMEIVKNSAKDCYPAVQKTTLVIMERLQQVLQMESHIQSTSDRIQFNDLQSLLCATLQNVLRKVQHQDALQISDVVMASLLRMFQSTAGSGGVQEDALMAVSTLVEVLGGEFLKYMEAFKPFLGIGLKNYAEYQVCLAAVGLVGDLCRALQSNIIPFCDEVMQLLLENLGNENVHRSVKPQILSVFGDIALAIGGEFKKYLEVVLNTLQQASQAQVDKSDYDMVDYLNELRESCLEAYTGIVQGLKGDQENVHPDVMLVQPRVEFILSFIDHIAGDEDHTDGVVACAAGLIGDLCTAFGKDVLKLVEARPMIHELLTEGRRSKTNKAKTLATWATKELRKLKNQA
#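 FRET biosensor (snurportin 1 IBB flanked by EYFP and cerulean), 50 nM, with compound 5 min, then 0.125 microM importin beta in PBS, 1 mM DTT, 0.02% Tween-20, 0.1% BSA. CFP/YFP ratio read after 45 min at room temperature; pre-read flags interference.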
# GLA inh pH 4.5: alpha-galactosidase A (human) inhibition, pH 4.5. P06280. purified enzyme, 4-MU-alpha-Gal fluorescence, pH 4.5. AID 1467. 230,000 tested, under 10 active. activity change, negative = inhibition, % at 105 µM; inconclusive = small, poorly fitted or top-dose-only inhibition, or a rising curve; inactive = flat fitted curve, though single readings scatter; no compound was filed as active;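 note: 0% = full activity with enzyme and -100% = basal without enzyme; dose as in the result columns while the protocol names 77 µM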
# An asterisk follows results filed as active; ? = inconclusive; . = not tested or not shown. The list is partial. The share of hits here may be higher or lower than overall.
SMILES,miR-21 FLuc,Rango dissoc inh,Rango-impB inh,GLA inh pH 4.5
COc1cc(C(=O)n2nc(C)cc2C)ccc1O,-1.6%,8.2%,5.9%,3.5
COc1ccc(S(=O)(=O)NCc2ccccn2)cc1NC(=O)c1ccccc1,?,18.4%,-1.9%,.
CNC(=O)CC(C(=O)O)c1ccc(OC(C)C)cc1 (centres undefined),-1.6%,5.9%,-0.2%,-1.7
Cc1cc(Oc2ccccc2)nc(NCc2ccccc2)n1,0.4%,0.2%,2.1%,-6.0
O=c1c2ccccc2[nH]c(=S)n1Cc1ccccc1Cl,-0.2%,-3.3%,-1.1%,.
COc1ccccc1NC(=O)c1ccc2c(O)c(S(=O)(=O)c3ccccc3)c(=O)[nH]c2c1,-1.2%,-0.8%,-0.6%,.
C/C(N)=C(/C#N)C(=O)COC(=O)c1cccc2ccccc12,-47.9%,0.3%,-2.5%,-19.8
O=S1(=O)CCN2C(c3cccc4ccccc34)=CSC2=N1,-1.3%,0.2%,4.6%,6.4
Cc1cccc(NC(=O)CSc2nnc([C@@H](N)Cc3ccccc3)o2)c1C,0.1%,-4.6%,-3.4%,-0.4
O=C(NN1S(=O)(=O)c2ccccc2S1(=O)=O)c1ccc(Br)cc1,0.4%,3.8%,-1.6%,8.7
Cc1nc2sc(C(c3cccc(F)c3)N3CCC(O)CC3)c(O)n2n1 (centres undefined),-3.2%,10.4%,0.3%,-18.0
CC1=CC(=C2C(=O)c3ccccc3C2=O)C=C(C)O1,-36.4%,-10.3%,0.0%,-1.7
CCCCn1c(N)c(N(CCOC)C(=O)CSCc2cccc(C)c2)c(=O)[nH]c1=O,.,9.5%,1.7%,.
CCOc1ccccc1NC(=O)Cn1cnc2c(cnn2-c2ccc(C)c(C)c2)c1=O,-0.1%,6.4%,0.5%,1.6
C/C(=N\Nc1ccc(F)cc1F)c1ccc(Br)s1,-19.0%,-2.6%,0.5%,?
COc1ccc(S(=O)(=O)N(CC(=O)Nc2ccc(S(=O)(=O)N3CCOCC3)cc2)Cc2ccc(F)cc2)cc1,-0.9%,4.8%,-0.5%,?
CC1CCc2c(sc(N)c2C(N)=O)C1 (centres undefined),-3.1%,-13.0%,-2.3%,4.7
O=C(Nc1ccn(Cc2ccc(Cl)cc2)n1)c1ccc2c(c1)OCO2,-11.3%,-13.5%,-2.1%,3.5
O=C(NCc1nnc(SCC(=O)N2CCc3ccccc32)o1)c1ccco1,-4.6%,2.0%,-0.5%,-2.0
O=C(Nc1sc2c(c1C(=O)O)CCCCC2)c1cccnc1,-19.9%,-3.7%,0.3%,.
COC(=O)[C@@H](N)CS,-6.7%,-4.5%,-2.0%,-4.4
Cn1cccc1C(=O)OCC(=O)c1c[nH]c2ccccc12,.,2.0%,-0.2%,.
O=C(NCCN=C1NS(=O)(=O)c2ccccc21)c1ccc(S(=O)(=O)N2CCOCC2)cc1,0.1%,2.8%,0.0%,2.7
Cc1nn(Cc2ccccc2)c(Cl)c1C(=O)NC(C)(C)C,-19.4%,-10.9%,?,2.8
Cc1ccc(C(=O)NCCN(C)C)cc1C,-4.2%,-0.7%,1.1%,3.1

# Four of the compounds above, field by field:
molecule: O=c1c2ccccc2[nH]c(=S)n1Cc1ccccc1Cl
  miR-21 FLuc: -0.2% | Rango dissoc inh: -3.3% | Rango-impB inh: -1.1% | GLA inh pH 4.5: .
molecule: COc1ccccc1NC(=O)c1ccc2c(O)c(S(=O)(=O)c3ccccc3)c(=O)[nH]c2c1
  miR-21 FLuc: -1.2% | Rango dissoc inh: -0.8% | Rango-impB inh: -0.6% | GLA inh pH 4.5: .
molecule: C/C(N)=C(/C#N)C(=O)COC(=O)c1cccc2ccccc12
  miR-21 FLuc: -47.9% | Rango dissoc inh: 0.3% | Rango-impB inh: -2.5% | GLA inh pH 4.5: -19.8
molecule: O=S1(=O)CCN2C(c3cccc4ccccc34)=CSC2=N1
  miR-21 FLuc: -1.3% | Rango dissoc inh: 0.2% | Rango-impB inh: 4.6% | GLA inh pH 4.5: 6.4

# (next part)
SMILES,miR-21 FLuc,Rango dissoc inh,Rango-impB inh,GLA inh pH 4.5
CN1CCCc2cc(C=O)ccc21,1.3%,-4.3%,0.9%,-2.9
COc1cccc2c1OCC(CN1CCN(C3CCCCC3)C(CCO)C1)=C2 (centres undefined),-5.9%,-13.6%,6.9%,-12.0
CCOC(=O)/C=c1\s/c(=C\c2ccccc2OC)c(=O)n1CC(=O)N1CCOCC1,-12.8%,-18.0%,?,-1.8
CCc1ccc(Oc2coc3cc(O)ccc3c2=O)cc1,-37.0%,-1.9%,-1.3%,.
CCOc1ccc(Cl)cc1CNc1nnnn1C,-3.3%,7.7%,0.4%,-5.4
Cc1ccc(S(=O)(=O)N2CCOCC2)cc1C(=O)Nc1ccc(S(=O)(=O)Nc2nccs2)cc1,-3.0%,?,?,-21.6
Cc1ccccc1-n1nnnc1SCC(=O)c1c(N)n(C2CC2)c(=O)[nH]c1=O,.,20.4%,-0.5%,.
CCN1CCN(C(=O)CN(C)S(=O)(=O)c2ccc(OC)cc2)CC1,-2.2%,-15.7%,-1.9%,0.5
CCc1ccc(NC(=O)Cn2nnc(-c3ccc(C)cc3-n3cnnn3)n2)cc1,-0.2%,-7.2%,0.0%,2.0
CCn1nc(C(=O)NNS(=O)(=O)c2cc(/C=C/C(=O)O)cc(OC)c2OC)c2ccccc2c1=O,.,-5.7%,0.0%,.
CCC(=O)Nc1cccc(NC(=O)c2ccc3c(c2)OCO3)c1,-27.5%,-3.7%,-1.4%,3.4
Nc1c(N2CCCCC2)c(=O)[nH]c(=O)n1-c1ccccc1,-4.4%,0.9%,4.7%,5.2
COc1ccc(CNC(=O)CSc2nc3ccc(C)cc3[nH]2)cc1,-18.3%,-18.1%,-4.5%,.
CC(C)(C)c1ccc(C(CC(=O)O)NS(=O)(=O)Cc2ccccc2)cc1 (centres undefined),-7.2%,-12.8%,2.1%,.
O=C(CSc1nnc2ccc(-c3ccccn3)nn12)N1CCCC1,.,20.2%,?,.
COc1ccc(C)cc1Nc1nc(-c2c(C)[nH]c3ccccc23)cs1,-8.0%,?,?,4.4
Cc1cccc(-n2c(CCN3C(=O)c4ccccc4C3=O)nc3ccccc3c2=O)n1,-0.6%,-0.9%,-5.0%,-1.5
CCC(=O)Nc1nc(-c2ccc3c(c2)OCCO3)cs1,-20.5%,23.0%,-3.6%,-0.1
CCSC1(SCC)N=C(N)C2(C#N)C(c3ccc(F)cc3)C12C#N (centres undefined),?,-17.1%,?,10.8
CN(Cc1cn(C)nc1-c1ccc(Oc2ccccc2)cc1)Cc1cnc2ccccn12,29.4%,0.8%,4.0%,-15.4
CC(OC(=O)Cn1[nH]c(=O)c2ccccc2c1=O)C(=O)NC1(C#N)CCCCC1 (centres undefined),.,-1.6%,-3.4%,.
CC(NC(=S)Nc1ccccc1OC(F)F)C(C)(C)C (centres undefined),-6.2%,10.9%,1.1%,5.7
O=C(CSCc1cnn(-c2ccccc2)c1-n1cccc1)NCc1ccccn1,0.9%,-12.2%,0.4%,-0.9
CN(C)Cc1cc(CN(C)C)c(O)c(CCc2ccccc2)n1,-1.3%,1.9%,-1.1%,-1.9
CCN(CC)C(=O)CN(c1cccc(Br)c1)S(C)(=O)=O,1.0%,-0.5%,-0.1%,3.3

# Remaining list, next part
SMILES,miR-21 FLuc,Rango dissoc inh,Rango-impB inh,GLA inh pH 4.5
Cc1ccc(-n2nc3c(c2NC(=O)c2ccc4c(c2)OCO4)CS(=O)(=O)C3)c(C)c1,-6.0%,0.5%,-0.2%,.
O=C(N/N=C/c1ccc(O)cc1)c1cccc(C(F)(F)F)c1,-9.9%,1.5%,0.6%,4.5
O=C(NCc1ccccn1)c1nc(-c2ccc(C(F)(F)F)cc2)no1,-6.6%,-7.0%,0.9%,-7.5
Cc1ccccc1S(=O)(=O)N1[C@@H](c2ccc(Br)cc2)C(C(=O)O)=CC[C@H]1c1ccc(Cl)cc1,.,-15.7%,6.8%,.
Cc1ccc2c(c1)N(CC(=O)NCC(C)c1ccccc1)C(=O)c1cccnc1O2 (centres undefined),3.8%,15.9%,4.4%,.
C/C(CCc1ccccc1)=N\NC(=O)CC(=O)NCCc1ccccc1,-3.9%,-4.8%,1.5%,0.4
CCOC(=O)C(Cc1ccccc1)(NC(C)=O)C(=O)OCC,-3.1%,0.4%,-3.4%,1.3
Cc1nnc(NC(=O)c2ccc(S(=O)(=O)N3CCOCC3)cc2)s1,5.3%,15.4%,0.8%,-9.8
CCNC(=O)C/C(C)=N/NC(=O)C12CC3CC(CC(C3)C1)C2,-21.5%,11.4%,0.6%,1.1
CCCCOc1ccc(Cl)cc1CSc1nnc(CC)n1N,-9.5%,-0.9%,?,-27.5
Cc1cc(C)n(-c2ccc(C(=O)NC3=NCCS3)cc2)n1,-46.4%,2.1%,?,.
Nc1ccc(C(=O)OCC(=O)N2c3ccccc3Sc3ccccc32)cc1[N+](=O)[O-],9.8%,-9.7%,-0.1%,2.4
CCN1CCN(c2nc(SC)nc3sc4c(c23)CC(C)(C)OC4)CC1,-9.4%,-1.0%,-7.4%,2.6
COC(=O)C[C@H]1c2cc(C(F)(F)F)ccc2S(=O)(=O)N1Cc1ccccc1,.,-1.2%,-0.6%,.
CC(=O)OCC1CCCC2=C(C)C(=O)CCC21COC(C)=O (centres undefined),-3.6%,15.1%,-0.3%,-3.1
Cc1cccc2cc(C3CC(c4ccco4)=NN3S(=O)(=O)c3ccccc3)c(Cl)nc12 (centres undefined),-0.9%,-5.0%,0.0%,-5.7
CCOc1ccc(N2CC(O)(c3ccc(F)cc3)[N+]3=C2CCCC3)cc1 (centres undefined),-0.6%,-4.5%,2.3%,-28.9
CC12CCC(c3nnc(SCc4ccc(Cl)cc4)nc31)C2(C)C (centres undefined),-0.2%,6.5%,-2.1%,0.0
COc1ccc(NC(=S)N2CCC(c3nc4ccc(Cl)cc4[nH]3)CC2)c(OC)c1,4.8%,8.5%,-1.3%,?
O=C(Cn1nc(Cl)nc1Cl)c1ccc([N+](=O)[O-])cc1,1.0%,-10.1%,-1.0%,.
CN(C)c1ccc(N2C(=O)CC(Sc3ccccc3C(=O)O)C2=O)cc1 (centres undefined),-5.5%,-4.9%,-0.8%,-7.4
Clc1ccc2scc(CN3CCCC3)c2c1,.,-16.2%,0.7%,.
CCOc1ccccc1NC(=O)CSc1nc2cccnc2n1C,-2.6%,0.8%,-1.3%,2.6
O=C(Nc1cc(Br)ccc1O)c1cc(-c2cccs2)on1,-29.4%,-3.3%,0.0%,.
CCC(=O)NC(=S)Nc1ccc(NC(=O)c2ccc(C)c([N+](=O)[O-])c2)cc1,-2.2%,-6.2%,-0.6%,5.6

# (list continues)
SMILES,miR-21 FLuc,Rango dissoc inh,Rango-impB inh,GLA inh pH 4.5
Cc1ccc(-c2ccc(=O)n(CCC(=O)N3CCN(Cc4ccccc4)CC3)n2)cc1,15.1%,-5.3%,6.2%,.
CCn1ccc2c(OCC(=O)NCCc3ccc(OC)c(OC)c3)cccc2c1=O,.,-8.1%,-3.7%,.
Brc1ccc(N/N=C(/N=Nc2nn[nH]n2)c2ccccc2)cc1,?,13.3%,-1.2%,-7.5
COc1ccc(CCNC(=O)C(C)Sc2ccc(C)cc2)cc1OC (centres undefined),8.4%,0.1%,-1.9%,-1.6
O=C(NCCN1C(=O)C2C3C=CC(C3)C2C1=O)Nc1ccccn1 (centres undefined),-1.6%,-13.1%,4.3%,0.1
CC(C)(C)NCCOc1ccc(Br)cc1,-3.9%,0.8%,-0.1%,-1.1
O=C1CN(C(=O)COC(=O)c2ccc(Cl)c(S(=O)(=O)N3CCCCC3)c2)c2ccccc2N1,.,-0.2%,-5.8%,.
COC(=O)c1cc2cc(NS(=O)(=O)c3ccc(C)cc3)ccc2s1,-12.5%,11.3%,0.1%,-10.5
O=C(Nc1ccnc(-c2ccncc2)n1)c1cccs1,5.4%,-0.2%,-1.3%,0.2
N#Cc1ccc(NC(=O)COC(=O)C2Cc3ccccc3CN2C(=O)c2ccccc2)cc1 (centres undefined),-0.4%,-5.4%,0.0%,-5.5
O=C(CN1CCC(n2nnc3cc(F)ccc32)CC1)Nc1ccc2c(c1)CCC2,-1.9%,0.1%,0.3%,0.0
